High-throughput results (PubChem BioAssay)
ClpP mod = qHTS Assay for Activators of ClpP; ATP-dependent Clp protease proteolytic subunit (Bacillus subtilis (strain 168)), P80244; purified B. subtilis ClpP, FRET peptide cleavage, 20 min; Potency, µM (highest dose often 57.5 µM), for the others: at the highest dose activity change, negative = active; 340,000 compounds, 1.9% hits; active = well fitted falling curve with a large enough effect; inconclusive = small, poorly fitted or top-dose-only effect; inactive = no such curve, though single readings can be large or run the other way; also: potency is read from the fitted curve at half-maximal effect; the source files actives as falling curves though it sought activators and does not explain the sign; nearly all actives have a fitted effect of over 65% in size; many hits overshoot -100%
Target sequence (P80244 whole entry, looked up): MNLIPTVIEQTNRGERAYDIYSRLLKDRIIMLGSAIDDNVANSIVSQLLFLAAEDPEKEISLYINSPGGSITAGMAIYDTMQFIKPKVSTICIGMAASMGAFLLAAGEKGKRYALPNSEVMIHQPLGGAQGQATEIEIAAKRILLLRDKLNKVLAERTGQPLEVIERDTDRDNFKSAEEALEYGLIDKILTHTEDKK
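ClpP 10 microg/mL final, pH 8 Tris/KCl buffer with BSA, glycerol, Tween-20; compound pinned in; FRET-FV substrate; RT 20 min; Ex320/Em430; ΔFRET vs ADEP 5.8 microM, DMSO, no enzyme.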
D2 potentiator = human D2 receptor positive allosteric modulation | P14416 | DiscoveRx D2 beta-arrestin cells, luminescence, 90 min; 100% = 57 uM dopamine signal | potentiation, % (test concentration not listed) | 360,000 compounds, 0.23% hits; active = potentiation of 50% or more; inconclusive = 30% to 50%; inactive = 30% or less;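 also: compound concentration not given in the record; tested on top of an EC20 dose of dopamine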
Target sequence (P14416 whole entry, looked up): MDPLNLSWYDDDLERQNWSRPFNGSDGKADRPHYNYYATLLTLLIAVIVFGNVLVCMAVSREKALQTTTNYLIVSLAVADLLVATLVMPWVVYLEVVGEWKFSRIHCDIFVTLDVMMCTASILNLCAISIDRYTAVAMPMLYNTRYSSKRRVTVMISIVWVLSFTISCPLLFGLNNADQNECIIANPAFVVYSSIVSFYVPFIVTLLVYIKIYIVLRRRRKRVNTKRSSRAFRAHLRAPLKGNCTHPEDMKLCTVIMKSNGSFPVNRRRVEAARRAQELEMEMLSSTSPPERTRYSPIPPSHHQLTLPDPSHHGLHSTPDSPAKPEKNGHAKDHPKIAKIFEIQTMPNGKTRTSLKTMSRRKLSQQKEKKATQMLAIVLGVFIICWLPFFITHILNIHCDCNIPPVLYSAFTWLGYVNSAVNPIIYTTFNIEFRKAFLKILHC
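D2 cells co-treated with compound plus 50 nM dopamine (EC20) for 90 min at 37 deg C to detect potentiation. Beta-arrestin recruitment was read as enzyme-fragment luminescence after 1 h at ambient temperature. Full response was set by 57 uM dopamine.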
gsp agonist = agonists of gsp mutant (McCune-Albright syndrome); gsp mutant cells, cAMP HTRF, 30 min; control for the full effect not named in the record; 340,000 compounds, 0.13% hits; AID 624287; Potency, µM (doses to about 76.9 µM), for inactives: top-dose activation (cAMP increase), most hits filed as activators; active = well fitted activation curve with a large enough effect; inconclusive = small, poorly fitted or top-dose-only effect, or another doubt; inactive = no such curve, though single readings can be large or run the other way; cell line not stated here;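 also: phosphodiesterase inhibitor Ro 20-1724 added with compounds to block cAMP breakdown; potency is read from the fitted curve at half-maximal effect; nearly all actives have a fitted effect of over 60% in size; about a fifth of the inactives were tested at one dose only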
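Cells stably selected in G418 were plated at 2000/well, grown 16-24 hr, then given compounds in DMSO with the PDE inhibitor […] (300 uM solution added) for 30 min at 37C; cAMP was read by HTRF.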
Menin MLL FP FL = menin-MLL binding inhibition, fluorescein peptide | Fluorescence polarization, fluorescein-MLL peptide displacement from menin | FP activity change, % at 61.4 µM | 290,000 tested, under 10 active | AID 1766; inconclusive = falling polarisation curve, or a change in total fluorescence; inactive = total fluorescence flat and polarisation flat or rising; no compound was filed as active; the % refers to the polarisation; negative = inhibition;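 also: % of control where 0% means no effect; inhibitors lower the polarisation; unlabelled MLL peptide was the positive control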
gsp antag = gsp mutant antagonism. AID 624288. gsp-mutant cells, cAMP HTRF, 30 min; control for the full effect not named in the record. 340,000 compounds, 0.4% hits. Potency, µM (series often up to 76.9 µM), for the others: at the top dose activity change, negative = inhibition, most hits filed as inhibitors; active = falling curve of any shape with a large fitted effect; inconclusive = falling curve, mostly with a smaller effect; inactive = flat or rising curve; cell line not stated here;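 also: intracellular cAMP measured with PDE inhibitor Ro 20-1724 present during compound exposure; potency is read from the fitted curve at half-maximal effect; % is scaled to controls: 0 for no effect and ±100 for the full control effect; nearly all actives have a fitted effect of over 65% in size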
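Cells, 2000/well, grown 16–24 h in DMEM 10% FBS with 0.5 mg/ml G418, then compounds plus […] (300 uM addition stock), 30 min at 37C. cAMP read by HTRF (cAMP-d2 and anti-cAMP antibody-K in lysis buffer) after 30 min RT.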
TRPV1 potentiator = human TRPV1 potentiation; 320,000 compounds, 0.02% hits; Q8NER1; TRPV1-expressing cells, Fluo-8 calcium influx, capsaicin EC20 potentiation; host cell line not named in the record; control for the full effect not named in the record; potentiation, % at 8.33 µM; AID 540277; active means potentiation above 80%; inconclusive means 30% to 80%; inactive means below 30%; also: 0% is about no effect
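Fluo-8 calcium influx in TRPV1-expressing cells, kinetic read (ex 480/em 520 nm). Compound added and read 3 min for agonist activity, followed by capsaicin at EC20 final and 2 min further read for enhancement.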
Sfp inh = inhibitors of Bacillus subtilis Sfp phosphopantetheinyl transferase; Potency, µM, for inactives: max response, negative = inhibition, most hits filed as inhibitors; 310,000 compounds, 3.5% hits; AID 1490; Q9F4F7; Biochemical Sfp PPTase activity, qHTS; active = well fitted inhibition curve with a large enough effect; inconclusive = small, poorly fitted or top-dose-only effect, or another doubt; inactive = no such curve, though single readings can be large or run the other way;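 also: the enzyme is Sfp with the accession as filed and its product quenches rhodamine fluorescence; potency is read from the fitted curve at half-maximal effect; 0% = enzyme reaction without inhibitor and -100% = no enzyme wells; top concentration of the series not given in the record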
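With Hepes-Na pH 7.6 buffer containing 10 mM MgCl2, Sfp (15 nM) modified BHQ-2-YbbR (12.5 uM) using rhodamine-CoA (5 uM). Two reads 30 minutes apart at 525/598 nm yielded each well's rate.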
Starred values were filed as active, the others as inactive; ? = inconclusive; . = no result given; & = joins results of further samples; [ ] = dose if it differs, or a comment.

SMILES	ClpP mod	D2 potentiator	gsp agonist	Menin MLL FP FL	gsp antag	TRPV1 potentiator	Sfp inh
C=CCNC(=O)C(C(=O)OCC)C1CCCCC1 (stereo unspecified)	0.8%	-14	-29%	1.9	14%	0	28%
O=C(N/N=C/c1c(Cl)cccc1Cl)c1ccc(F)cc1	0.3%	-9	22%	3.4	1%	-9	13%
CC1(C)CCc2cc(-c3ccnc(=S)[nH]3)ccc2O1	.	-17	-3%[15.4 µM]	-2.7	-18%	22	4%
CC(=O)NS(=O)(=O)c1ccc(NC(=O)C2c3ccccc3Oc3ccccc32)cc1	-4.5%	-16	-40%[inhibitor]	3.1	7%	-11	21%
CC1CCN(CC[C@H]2CCCN2S(=O)(=O)c2cccc(O)c2)CC1	0.3%	-23	.	1.7&-11	5%	29	-5%
COc1cccc(CN(C)C(=O)[C@@H](NC(=O)c2ccc(C)cc2)C(C)C)c1	.	-6	-41%	3.0	3%	-44	9%
C/C(=N\Nc1nc2ccccc2[nH]1)c1ccc(C)o1	-0.6%	6	1%[15.4 µM]	3.3	-10%	-10	14%
COc1ccc(OC)c(S(=O)(=O)n2nc(C)cc2C)c1	0.0%	-1	-22%	1.3	-7%	8	22%
CNS(=O)(=O)c1ccc(NCC2COc3ccccc3O2)c([N+](=O)[O-])c1 (stereo unspecified)	0.3%	-3	-20%	2.7	8%	-2	0%
Cc1ccc(S(=O)(=O)N[C@@H](Cc2ccccc2)C(=O)N2CCC(C(=O)N[C@H](C(=O)O)C(C)O)CC2)cc1 (stereo partly specified)	-3.5%	-5	?	-2.0	4%	-3	13%
COc1ccc(OC)c(S(=O)(=O)Nc2ccc3c(c2)OCCO3)c1	-5.6%	-10	1%	.	.	.	.
C=CCn1c(COc2ccc(F)cc2)nnc1SC(C)C(=O)NCC1CCCO1 (stereo unspecified)	1.2%	-7	-35%[inhibitor]	.	3%	0	.
CC[C@H]1C(c2ccc(F)cc2)=NN(c2ccccc2)[C@@H]1CO	4.6%	16	.	3.6[94.6 µM]	1%	.	5%
O=C(CSc1nnc(CNC(=O)c2c(F)cccc2Cl)o1)NCc1ccc2c(c1)OCO2	-0.2%	-7	-11%	0.0	6%	2	-5%
CC(C)Cc1nnc(NC(=O)c2cc(-c3ccncc3)nc3ccccc23)s1	.	3	21%[15.4 µM]	7.7	-4%	30	-1%
O=C(CSCc1cnn(-c2ccccc2)c1-n1cccc1)NCC1CCCO1 (stereo unspecified)	0.4%	-14	3%	1.7	-10%	-17	13%
Cc1ccc(CC(=O)Nc2nncs2)cc1	1.3%	4	-16%	1.9	7%	9	6%
Cc1ccc(Nc2nc3c(c(=O)[nH]c(=O)n3C)n2Cc2ccc(F)cc2)cc1	-7.1%	-2	3%	0.6	-1%	10	9%
C=CCN1C(=O)/C(=C2/C(=O)N(CC(=O)O)c3ccccc32)S/C1=N/c1nccs1	.	.	.	-3.2	.	7	-21%
COc1ccc(C(=O)Nc2ccc(N3CCOCC3)cc2)cc1S(=O)(=O)NC1CCCC1	8.9µM*	-10	62%[15.4 µM]	-0.3	-2%	-3	6%
O=S(=O)(c1ccc(SCCOc2ccc(Br)cc2)nc1)N1CCCC1	-4.5%	-2	13%	.	3%	-15	.
C[C@@H]1CN([C@H](C)CO)C(=O)CCCn2nncc2CO[C@H]1CN(C)Cc1ccc2c(c1)OCO2	1.7%	-2	-74%[inhibitor]	.	.	.	.
O=S(=O)(NC1=NCCC1)c1cccc(NC(=S)NCCc2ccccc2)c1	0.3%	1	10%[15.4 µM]	1.2	11%	8	7%
Cc1cc(C)cc(NC(=O)c2cccc(N3C(=O)C4C5C=CC(C5)C4C3=O)c2)c1 (stereo unspecified)	-0.9%	-9	-57%[inhibitor]	-2.4	-4%	1	12%
CC(=O)Nc1ccc(NC(=O)/C=C/c2cccc(C(F)(F)F)c2)cc1	-1.9%	-6	1%[15.4 µM]	7.2	-3%	5	-2%

Ordered by molar mass (lowest first): part of the list above
SMILES	ClpP mod	D2 potentiator	gsp agonist	Menin MLL FP FL	gsp antag	TRPV1 potentiator	Sfp inh
Cc1ccc(Nc2nc3c(c(=O)[nH]c(=O)n3C)n2Cc2ccc(F)cc2)cc1	-7.1%	-2	3%	0.6	-1%	10	9%
CC(C)Cc1nnc(NC(=O)c2cc(-c3ccncc3)nc3ccccc23)s1	.	3	21%[15.4 µM]	7.7	-4%	30	-1%
C[C@@H]1CN([C@H](C)CO)C(=O)CCCn2nncc2CO[C@H]1CN(C)Cc1ccc2c(c1)OCO2	1.7%	-2	-74%[inhibitor]	.	.	.	.

Going on with the list:
SMILES	ClpP mod	D2 potentiator	gsp agonist	Menin MLL FP FL	gsp antag	TRPV1 potentiator	Sfp inh
CCOc1ccc(N(C(=O)c2snc(C(N)=O)c2N)C(C)C(=O)NC2CCCCC2)cc1 (stereo unspecified)	.	-13	-2%	-7.1	-2%	-9	13%
Cc1c(NC(=O)COC(=O)/C=C/c2ccccc2Br)c(=O)n(-c2ccccc2)n1C	-1.1%	1	-1%	.	-2%	10	.
Cc1ccc(S(=O)(=O)N2[C@@H](c3ccc(Cl)cc3)C(C(=O)O)=CC[C@H]2c2cccc(C)c2)cc1	-0.9%	-4	-3%	.	1%	-4	.
COC(=O)c1c(C(=O)OC)c(-c2ccc(OC)cc2)n2c1CCC2	-7.6%	-9	15%	1.2	-11%	3	10%
COc1ccc(Sc2nnc(Cc3ccccc3)c3ccccc23)cc1	-2.6%	-2	27%	-0.1	-5%	4	3%
Cc1ccc(-n2c(SCC(=O)N(C)C)nnc2-c2ccco2)cc1	-4.0%	-7	-22%	-1.7	-5%	5	12%
COc1ccc(N(CC(=O)NCc2ccc(F)cc2)C(=O)c2snc(C(N)=O)c2N)cc1	-1.2%	-10	26%[15.4 µM]	3.4	-37%	21	-2%
COCCn1c(C)cc(C(=O)CSc2nnc(C)s2)c1C	-0.6%	-1	2%	1.5	-5%	23	-1%
N#CCCN1CCN(CCC#N)c2ccccc21	.	6	8%	.	?	.	.
Cc1cc(C=O)c(C)n1-c1cc(C(=O)O)cc(C(=O)O)c1	.	4	-7%	1.6	4%	-2	3%
Nc1c(C=C2C=CC(=O)C=C2)c(=O)nc2sc(CC(=O)N3CCOCC3)nn12	.	-7	-25%	29	4%	0	5%
O=C(NCCCN1CCCCC1)c1ccc2c(c1)NC(=O)C(N1CCCCC1)S2 (stereo unspecified)	-4.0%	-48	-45%[inhibitor]	0.2	6%	-4	11%
O=C(COC(=O)Cc1ccc(Cl)cc1)Nc1c(F)cccc1F	.	-8	-1%	1.3	9%	-6	15%
CC(C)N(CC(O)COc1ccc(CC(N)=O)cc1)CC(O)COc1ccc(CC(N)=O)cc1 (stereo unspecified)	.	-4	?	1.6	6%	-10	15%
Cc1noc(C)c1COc1ccccc1C(=O)NCCc1ccc(S(N)(=O)=O)cc1	-1.8%	19	-61%[inhibitor]	.	8%	-2	10%
CCC(C(=O)Nc1ccc2c(c1)OCCO2)n1c(=O)[nH]c2ccccc2c1=O (stereo unspecified)	-1.2%	0	-9%	-4.8	-4%	-5	8%
CCn1c(SCC(=O)NCc2ccco2)nnc1-c1ccc(N)cc1	-9.6%	-15	-20%	4.4	2%	6	-3%
CCc1ccc(NC(=O)CSc2nc3cc(C(=O)OC)ccc3c(=O)n2Cc2ccco2)cc1	-3.5%	-4	?	-2.5	19%	-2	2%
Cc1c(C(=O)O)sc2nc(/C=C/c3cccc(F)c3)[nH]c(=O)c12	-19%	5	-15%	-9.5	-25%	5	9%
CC1CCC(=NNC(=O)c2ccccc2-n2cccc2)CC1 (stereo unspecified)	.	-4	-9%[15.4 µM]	.	4%	-9	.
O=C(O)COn1c(-c2ccccc2)nc2ccc([N+](=O)[O-])cc21	.	-8	1%	2.2	-8%	2	25%
CCN1C(=O)/C(=C/C=C2/Sc3ccccc3N2CCO)SC1=S	.	-5	-19%[15.4 µM]	?	1%	7	?
COc1ccc2[nH]cc(C(=O)CN3CCN(C/C=C/c4ccccc4)CC3)c2c1	.	.	.	2.7	.	-4	13%
COC1CCCN(Cc2c(C(=O)N3CCc4ccccc4C3)nc3ccc(Cl)cn23)C1 (stereo unspecified)	-3.0%	-18	21%	-4.4	-4%	-8	9%
COc1nc(OC)nc(N2CCC(C(=O)NCc3ccc(F)cc3)CC2)n1	-0.7%	-13	-3%	3.7	5%	9	5%

Entries shown so far containing fluorine:
SMILES	ClpP mod	D2 potentiator	gsp agonist	Menin MLL FP FL	gsp antag	TRPV1 potentiator	Sfp inh
O=C(N/N=C/c1c(Cl)cccc1Cl)c1ccc(F)cc1	0.3%	-9	22%	3.4	1%	-9	13%
C=CCn1c(COc2ccc(F)cc2)nnc1SC(C)C(=O)NCC1CCCO1 (stereo unspecified)	1.2%	-7	-35%[inhibitor]	.	3%	0	.
CC[C@H]1C(c2ccc(F)cc2)=NN(c2ccccc2)[C@@H]1CO	4.6%	16	.	3.6[94.6 µM]	1%	.	5%
O=C(CSc1nnc(CNC(=O)c2c(F)cccc2Cl)o1)NCc1ccc2c(c1)OCO2	-0.2%	-7	-11%	0.0	6%	2	-5%
Cc1ccc(Nc2nc3c(c(=O)[nH]c(=O)n3C)n2Cc2ccc(F)cc2)cc1	-7.1%	-2	3%	0.6	-1%	10	9%
CC(=O)Nc1ccc(NC(=O)/C=C/c2cccc(C(F)(F)F)c2)cc1	-1.9%	-6	1%[15.4 µM]	7.2	-3%	5	-2%
COc1ccc(N(CC(=O)NCc2ccc(F)cc2)C(=O)c2snc(C(N)=O)c2N)cc1	-1.2%	-10	26%[15.4 µM]	3.4	-37%	21	-2%
O=C(COC(=O)Cc1ccc(Cl)cc1)Nc1c(F)cccc1F	.	-8	-1%	1.3	9%	-6	15%
Cc1c(C(=O)O)sc2nc(/C=C/c3cccc(F)c3)[nH]c(=O)c12	-19%	5	-15%	-9.5	-25%	5	9%
COc1nc(OC)nc(N2CCC(C(=O)NCc3ccc(F)cc3)CC2)n1	-0.7%	-13	-3%	3.7	5%	9	5%
